# Bioassay records as filed in PubChem.
# UUG fidelity = modulators of yeast start codon fidelity, primary screen, whole organism, S. cerevisiae, single point, plate reader; S. cerevisiae UUG-firefly luciferase reporter, luminescence/redox ratio; activity score, % at 18.7 µM; AID 602363, 2012; hit rate 0.13% among 350,000;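 active = replicate mean at a twofold rise or more, about +100% in these data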;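 note: firefly luciferase made from a UUG start codon reports start codon fidelity; reporter light over untreated wells divided by growth signal over untreated wells; some hits fall short of that in this replicate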
# HIV Env fusion = inhibitors of HIV-1 Env-driven cell-cell fusion, primary screen, HeLa-JRFL effector, CEM21 target cells, luciferase; inhibition, % at 12.3 µM; hit rate 1.1% among 360,000; AID 651610, 2012;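 active = mean replicate inhibition score of at least 50 and every replicate individually at or above 50; inconclusive = only one of the two criteria met; inactive = mean below 50 and not all replicates reaching 50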;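 note: 0% = plate neutral controls and 100% = maraviroc near 300 nM; one replicate is shown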
# eIF4H inh = human eIF4H binding inhibitors, primary screen, translation initiation inhibitor project, biochemical, uHTS, fluorescence polarization; eIF4H fluorescence polarization binding assay; hit rate 0.94% among 290,000; inhibition, % at 35 µM; Eukaryotic translation initiation factor 4H (Homo sapiens), Q15056; AID 2012, 2009;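 active = 50% or more with normal probe brightness, or confirmed in later tests; inconclusive = above 50% with abnormal brightness, or retests that disagree; inactive = below 50% or failed in later tests; about a fifth of its hits are not listed in these tables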;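 note: calls also rest on retests at 20 µM and on dose response follow-up; 0% = protein and probe with vehicle and 100% = probe without protein; strong numbers were not always called active; many hits fall short of the cut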
# PABP polyA inh = PABP poly(A) RNA binding inhibitors, primary screen, biochemical, fluorescence polarization, uHTS. inhibition, % at 35 µM. hit rate 1% among 290,000. Polyadenylate-binding protein 1 (Homo sapiens), P11940. AID 2014, 2009;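 active = 50% or more with normal probe brightness, or confirmed in later tests; inconclusive = above 50% with abnormal brightness, or retests that disagree; inactive = below 50% or failed in later tests; about a fifth of its hits are not listed in these tables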;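 note: calls also rest on retests at 20 µM and on dose response follow-up; controls were probe without protein and protein plus probe with vehicle; some compounds called inactive have numbers as strong as hits; many hits fall short of the cut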
# MT1-MMP act inh = blockers of MT1-MMP proenzyme processing, primary screen, HT1080 RFP-PRO-GFP cells, GFP/RFP fluorescence; Matrix metalloproteinase-14 (Homo sapiens), P50281; GFP/RFP ratio fluorescence, overnight; percent of plate control window, DMSO zero; GFP/RFP ratio change, % at 20 µM; hit rate 0.061% among 360,000; AID 651647, 2012;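 active = GFP/RFP ratio change of at least 30% with cell ATP level not reduced by more than half and red fluorescence within 50% of control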; note: strong numbers were not always called active
#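 Assay system: HT1080 RFP-PRO-GFP cells | Dosing: 20 µM single dose, 1% DMSO | Incubation: Cells overnight before dosing, compound overnight, 37 °C, 5% CO2 | Evaluation: GFP/RFP fluorescence ratio | Control set: DMSO-only wells and HT1080 RFP-L50D-GFP cell wells as references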
# Rce1 inhib = yeast Rce1p protease inhibitors, primary screen, biochemical, fluorescence, cell-free homogeneous | CAAX prenyl protease 2 (Saccharomyces cerevisiae (strain ATCC 204508 / S288c)), Q03530 | yeast membranes, quenched prenylated peptide cleavage fluorescence | calls only | hit rate 0.27% among 290,000 | AID 2563, 2010;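 active = fall in fluorescence gain of 50% or more versus controls, with final raw signal at or below 3038400; inconclusive = same 50% fall but final raw signal above 3038400; inactive = fall in fluorescence gain under 50%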;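 note: plate controls were neutral control wells for no effect and wells lacking membranes for full effect; tested at 10 µM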
# Target sequence (Q03530 whole entry, looked up): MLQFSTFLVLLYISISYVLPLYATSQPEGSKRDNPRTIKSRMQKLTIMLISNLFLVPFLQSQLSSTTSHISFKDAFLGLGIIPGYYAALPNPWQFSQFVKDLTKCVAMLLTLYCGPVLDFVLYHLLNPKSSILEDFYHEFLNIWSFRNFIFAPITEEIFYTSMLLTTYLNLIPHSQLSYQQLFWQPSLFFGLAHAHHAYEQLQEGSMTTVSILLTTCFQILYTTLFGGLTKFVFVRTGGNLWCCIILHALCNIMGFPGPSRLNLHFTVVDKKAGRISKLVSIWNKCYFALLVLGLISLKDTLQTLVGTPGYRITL
# CSC inhib = cancer stem cell viability inhibitors, primary screen, luminescence | inhibition, % at 7.5 µM | cancer stem cell-like cells viability | hit rate 1.1% among 300,000 | AID 2717, 2010;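 active = mean at 75% or more and at least half the replicates too; inconclusive = mean and replicates disagree; tested in HMLE shEcad cells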;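 note: 0% = median of negative and 100% = median of positive control wells; the first replicate is given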
# eIF4H inh retest = further read-out of eIF4H inh, marked with its call; inhibition, %; compound at 20 µM; confirmation average;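 mean of two retest wells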
# PABP polyA inh retest = second read-out of PABP polyA inh, no call of its own (marks repeat the call); inhibition, %; compound at 20 µM; confirmation repeats;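 mean of two retest wells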
# MT1-MMP act inh RFP = also measured in MT1-MMP act inh; calls as there; RFP signal change, %; measured here: RFP expression control read;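 0 = vehicle wells; hits needed this value within 50% of zero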
# Active calls of the source: *; i = inactive; ? = inconclusive; / = not tested or not shown. Some of the compounds tested, so the mix of outcomes need not match the whole.
SMILES,UUG fidelity,HIV Env fusion,eIF4H inh,PABP polyA inh,MT1-MMP act inh,MT1-MMP act inh RFP,Rce1 inhib,CSC inhib,others
CCCCn1c(=O)n(CC(O)c2ccccc2)c(=O)c2c1ncn2C1CCCC1 (stereo not drawn),1,-42,-3,-3,-1,2,i,-12,
O=C(NCCc1ccc(O)cc1)c1ccc(Cl)cc1,-33,/,3,9,-2,-1,i,-3,
Cc1ccc(N2CCN(S(=O)(=O)N3CCCCC3)CC2)cc1C,-5,-4,-4,-7,4,-1,i,-4,
COc1ccc(C)cc1N(CC(=O)NC1CCCC1)C(=O)CCC(=O)Nc1cc(C)on1,22,/,-2,0,6,4,i,2,
O=c1c2ccccc2nc(-c2ccc(Cl)cc2Cl)n1CCCn1ccnc1,-9,/,-10,-3,-2,3,i,-2,
O=C(Nc1ccc2c(c1)OCO2)C1CC(c2cccc(Br)c2)=NO1 (stereo not drawn),-16,-1,-6,17,4,-2,/,1,
Cc1ccc(N(C(=O)c2sc(C)nc2C)C(C(=O)NC(C)(C)C)c2ccncc2)cc1 (stereo not drawn),/,23,-6,1,-1,2,i,-5,
O=C(CCOc1ccccc1)NCC(c1ccco1)N1CCCCC1 (stereo not drawn),8,-1,6,-5,-1,1,i,-14,
CC(C)(C)C#CC(CCc1ccccc1)OS(N)(=O)=O (stereo not drawn),/,/,-9,6,/,/,i,-5,
NC(=O)NC(=O)CC1S/C(=N/N=C2\CSC(=O)N2)NC1=O (stereo not drawn),-26,-3,12,-5,-1,1,i,-5,
COc1ccc(OC)c(NS(=O)(=O)c2ccc(Cl)s2)c1,-8,-17,6,-12,1,3,i,-10,
COc1ccc(CCNC(=O)CSc2nc(O)c(CCC(C)C)c(=O)[nH]2)cc1OC,-9,-34,7,-5,-2,-3,i,-1,
O=C(NCc1cccnc1)C1c2ccccc2C(=O)N1Cc1ccccc1 (stereo not drawn),-9,-16,0,3,5,4,i,-6,
C=CCNC(=O)C(=O)NN=C1CCN(C)CC1,/,/,10,6,2,4,i,-3,
C/C(=N/NC(=O)COc1cc(C)ccc1C(C)C)C(=O)O,/,5,-1,5,3,3,i,/,
CCOC(=O)C1CCCN(CCSc2ccc(C)cc2)C1 (stereo not drawn),3,1,-4,5,2,3,i,-14,
CCCN(C(=O)CSCc1ccccc1C)c1c(N)n(Cc2ccccc2)c(=O)[nH]c1=O,/,-68,/,/,-2,0,i,-5,
O=C(Nc1nc(-c2cccs2)cs1)c1ccc(S(=O)(=O)N2CCCCC2)cc1,-2,12,-4,7,-2,-30,i,19,
Cc1c(C(=O)NCC2CCCO2)sc2nc(-c3ccc(F)cc3)cn12 (stereo not drawn),-14,-3,-4,-5,5,-7,i,8,
CN1CCN(CCn2c(=S)[nH]c3ccccc3c2=O)CC1,-9,-8,-4,-7,-1,3,i,-17,
CC(C)(C)c1ccc(C(=O)NNC(=O)Cc2cccc3ccccc23)cc1,/,/,-10,-3,5,-5,i,9,
CCN(C[C@H]1N[C@@](Cc2ccccc2)(C(=O)OC)[C@H]2C(=O)N(Cc3ccccc3)C(=O)[C@@H]12)C(=O)Nc1ccc(Cl)cc1,-10,7,/,/,-6,-13,/,61,
O=C(Cc1ccccc1)c1c[nH]c(C(=O)C(Cl)(Cl)Cl)c1,-12,-281,-1,4,3,-2,i,/,
O=C(COc1nsnc1N1CCOCC1)N/N=C/c1ccccc1O,/,/,10,14,1,-6,i,11,
CCOc1ccc(N(CC(=O)O)S(=O)(=O)c2cccnc2)cc1,-17,4,-6,1,2,3,i,9,
O=C(Cn1cnc2ccccc21)Nc1ccc2c(c1)OCCCO2,-5,-7,/,/,3,-29,/,3,
O=[N+]([O-])c1cccc(/C=C/c2ccc3cccc(O)c3n2)c1,-24,-50,9,-1,4,-6,i,36,
Cc1ccc(C(=O)NNC(=O)CSc2nnc(C3CC3)n2C)cc1,-7,-17,-6,2,1,6,i,3,
CC(C)c1nc(-c2ccccn2)no1,-21,0,-2,-5,-1,6,i,-12,
O=c1oc2ccccc2c(O)c1C=Nc1cccnc1,/,11,?,?,-8,3,i,7,
O=C(c1cc(F)ccc1F)C1CCCN(C(=O)CCCN2CCCCC2=O)C1 (stereo not drawn),/,-6,50,-15,3,3,i,-3,eIF4H inh retest=41;PABP polyA inh retest=12
Cc1cccc(CC(=O)NCC2CCCCC2)c1,-4,/,-2,1,-2,-2,i,-7,
Nc1[nH]nc2nc(-c3ccccc3)[nH]c(=O)c12,-16,12,5,-5,5,4,i,-3,
COc1cccc2sc(=NC(=O)CS(=O)(=O)c3ccc(F)cc3)n(C)c12,-5,-4,/,/,-2,-9,i,6,
CC(C)Cn1c(N)c(C(=O)COC(=O)COc2cccc(C(F)(F)F)c2)c(=O)n(C)c1=O,-3,/,1,12,2,-4,i,29,
COCCCNC(=O)c1cccc2c(=O)c(C)c(-c3ccccc3)oc12,-6,-7,-5,8,-2,-5,i,-10,
CCOc1cccc(CNCCO)c1OCc1ccc(Cl)cc1,5,9,4,3,-4,-4,i,11,
CC(C)Cn1c(SC(C)C(=O)Nc2ccc3c(c2)OCCO3)nc2ccccc2c1=O (stereo not drawn),-10,21,1,12,-2,-3,i,/,
Cc1ccc(-c2cc(C(F)F)n3ncc(C(=O)N4CCN(c5cccc(C)c5C)CC4)c3n2)cc1,-4,/,-2,4,-10,-14,i,-3,
CC1(C)OC2CCN3C(C(O)COS3(=O)=O)C2O1 (stereo not drawn),-17,-17,7,5,1,4,i,22,
CC(C)(C)NC(=O)COC(=O)CCC(=O)c1ccc(Cl)cc1,/,-1,3,2,-2,-3,i,13,
c1ccc2c(c1)CCN(c1ncnc3c1[nH]c1ccccc13)C2,1,87*,2,2,8,-17,/,-7,
O=C(NC1CCCC1)c1ccc(CS(=O)(=O)c2ccc(Br)cc2)o1,-15,7,4,-4,-2,1,i,1,
CCn1cc(/C=N/NS(=O)(=O)c2ccc(OC)cc2)c(C)n1,-16,/,-6,48,-2,1,i,-5,
S=c1nc(-c2ccccc2Cl)n(Cc2cccnc2)c2c1CCCC2,/,3,1,-1,-1,2,i,-5,
CC(C)(C)OC(=O)N(CCc1ccccc1)Cc1ccccc1OCc1ccc(NC(=O)C2CCCC2)cc1,-24,7,/,/,-10,-9,/,/,
Cn1nc(C(=O)Nc2ccccc2Cl)cc1C(=O)Nc1ccccc1Cl,-15,-3,/,/,2,1,i,5,
Cc1nc(C(=O)Nc2ccccc2)sc1C1(C)CC(c2cccc([N+](=O)[O-])c2)=NO1 (stereo not drawn),-10,?,-11,7,8,-1,i,10,
CCc1nc(C)ccc1OCC(=O)N(CC)CC,-9,/,3,28,6,3,i,-8,
COCCC(=O)Nc1c(-c2ccccc2)c2cc(Br)ccc2[nH]c1=O,-2,18,4,-6,-1,-1,i,-6,
c1cncc(-c2noc(-c3cccc4ccccc34)n2)c1,-22,/,0,-2,-2,-1,i,-21,
COc1ccc(-c2cc(-c3c(O)c(OC)c4occc4c3OC)[nH]n2)cc1,-17,1,0,5,-3,-7,i,28,
O=C(N=C1SC2CS(=O)(=O)CC2N1Cc1ccccc1)c1ccccc1 (stereo not drawn),-8,19,/,/,-4,-2,/,/,
O=C(NC1CCC(O)CC1)c1ccccc1OCc1ccc(F)cc1 (stereo not drawn),-1,-10,4,2,-1,2,i,-9,
O=c1c2cc(O)c(O)cc2oc2cc(O)c(C3OC(CO)C(O)C(O)C3O)c(O)c12 (stereo not drawn),0,/,/,/,9,2,i,-1,
CC(=O)NCCNC(=O)Cn1nnc(-c2ccccc2)c1COc1ccc2ccccc2c1,-12,?,/,/,-4,2,/,/,
CC(C)(C)CC(=O)NC(=S)NCc1ccco1,/,10,0,-10,0,2,i,-7,
COCCCn1[nH]c2c3c(ccc2c1=O)C(=O)c1ccccc1C3=O,2,/,4,-1,8,2,i,-12,
CCn1ncc(-c2ccnc3cc(C(=O)O)nn23)c1C,/,3,52,8,-5,-2,i,-9,eIF4H inh retest=13;PABP polyA inh retest=31
C=C[C@H](CC(C)C)N(Cc1ccccc1)S(=O)(=O)N(Cc1ccc(OC)cc1)[C@H](C=C)CC(C)C,-12,26,/,/,-7,-19,/,5,

# Continued.
SMILES,UUG fidelity,HIV Env fusion,eIF4H inh,PABP polyA inh,MT1-MMP act inh,MT1-MMP act inh RFP,Rce1 inhib,CSC inhib,others
CN(C)CC#Cc1cccc(-c2nc(C(=O)O)cc3c2[C@@H](CCO)N(S(=O)C(C)(C)C)C3)c1 (stereo partly drawn),-16,-11,/,/,1,1,/,/,
COc1ccccc1OCCCC(=O)Nc1ccc(N2CCOCC2)cc1,/,-21,3,-11,-1,3,i,/,
Cc1ccnc(N2CCC(C(=O)NCc3ccc(F)cc3)CC2)n1,/,-3,1,5,3,2,i,8,
COc1cccc(/C=C2/Sc3ccc(C(=O)NCCCN4CCCC4)cc3NC2=O)c1,-13,4,-6,-17,5,1,i,2,
CCc1ccccc1NC(=O)N1C2CCCC1CC(NC(=O)C(C)(C)C)C2 (stereo not drawn),-9,-96,-3,2,-1,2,i,/,
COc1ccccc1CNC(=O)COC(=O)Cc1c(Cl)cccc1Cl,-8,14,-8,2,2,3,i,-6,
Cc1cccnc1NC(=O)C1CCCN1S(=O)(=O)c1ccc(Cl)cc1 (stereo not drawn),-4,2,-17,12,-2,0,i,-5,
O=C(CSc1nnc(NC(=O)c2ccco2)s1)NC1CCCC1,-19,9,-6,-5,5,3,i,1,
COc1ccc(C)cc1S(=O)(=O)N1c2ccc(C)cc2C2CN(C)CCC21 (stereo not drawn),-16,4,/,/,-7,1,/,/,
O=C(Cn1c2c(sc1=O)C1c3ccccc3OCC1CS2)Nc1ccc(Cl)c(Cl)c1 (stereo not drawn),/,30,1,2,2,0,i,15,
Oc1cnc2ccccc2c1CN1CCOCC1,-19,0,0,-9,8,-7,i,4,
CCNC(=O)CCn1nc(-c2ccc(C)cc2)c2ccccc2c1=O,-6,10,4,3,2,-2,i,-3,
N#Cc1cc2ccccc2nc1SCc1ccccn1,-22,-347,4,9,-98,1,i,23,
CCC(C)NC(=O)C1CCN(S(=O)(=O)c2ccc3nc4c(c(C(=O)O)c3c2)CCCCC4)CC1 (stereo not drawn),-13,-1,-9,16,-1,4,i,9,
CCN(C(=O)c1cc(Cl)ccc1OC)c1ccccc1C,128*,/,0,-7,0,4,i,-5,
O=C(CNc1cccc2ccccc12)N/N=C/c1cccc(Oc2ccccc2)c1,/,17,5,1,6,7,i,-31,
O=C(N/N=C/c1ccc(O)c(O)c1)C1CC1,-12,-9,/,/,3,-5,i,4,
CCCCC(=O)N(C)c1c(C)nc2ccc(C(=O)N3CCCCC3)cn12,-10,2,/,/,1,5,/,/,
